# Source: PubChem BioAssay (National Center for Advancing Translational Sciences (NCATS))
# MARV entry inh = Marburg virus entry inhibition. Potency, µM (highest dose often 37.8 µM), without a hit: at the highest dose activity change, negative = inhibition, usual class: inhibitors. 300,000 compounds, 1.8% hits. Marburg virus pseudotyped entry inhibition, cell reporter; control for the full effect not named in the record; about a third of the inactives were read at about 46 µM. AID 540276; active = well fitted inhibition curve with a large enough effect; inconclusive = small, poorly fitted or top-dose-only effect, or effect the other way; inactive = flat fitted curve, though single readings scatter; tested in HEK293 cells; about a fifth of its hits are not listed in these tables; note: % is set by controls: 0 for no effect and ±100 for the full control effect; luciferase read-out
# 2A StopGo = FMDV 2A StopGo reporter, luciferase signal. human cells with a luciferase reporter of 2A StopGo recoding; control for the full effect not named in the record. Potency, µM (highest dose often 57.9 µM), inactives show at the highest dose signal change, negative = less light. 410,000 compounds, 1.2% hits; active = well fitted falling curve with a large enough effect; inconclusive = small, poorly fitted or top-dose-only effect; inactive = no such curve, though single readings can be large or run the other way; tested in HEK293T cells; note: % is set by controls: 0 for no effect and ±100 for the full control effect; nearly all actives have a fitted effect of over 45% in size; luciferase light after 4 h
# Lassa entry inh = Lassa virus entry inhibition; AID 540256; Potency, µM (top dose mostly 37.9 µM), without a hit: at the highest dose activity change, negative = inhibition, actives largely listed as inhibitors; 300,000 compounds, 1.2% hits; Lassa virus pseudotype entry inhibition, cell reporter; control for the full effect not named in the record; active means well fitted inhibition curve with a large enough effect; inconclusive means small, poorly fitted or top-dose-only effect, or effect the other way; inactive means flat fitted curve, though single readings scatter; tested in HEK293 cells; note: % is set by controls: 0 for no effect and ±100 for the full control effect; nearly all actives have a fitted effect of over 50% in size; luciferase read-out
# RE007 growth inh = less growth of the S. pombe RE007 Vpr strain. S. pombe RE007 Vpr strain, BacTiter-Glo ATP luminescence, 24 h; control for the full effect not named in the record. Potency, µM (series often up to 92.2 µM), for the others: at the highest dose activity change, negative = less growth. 360,000 compounds, 0.21% hits; active = well fitted falling curve with a large enough effect; inconclusive = small, poorly fitted or top-dose-only effect; inactive = no such curve, though single readings can be large or run the other way;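 note: % is set by controls: 0 for no effect and ±100 for the full control effect; nearly all actives have a fitted effect of over 50% in size; the assay follows cell death caused by Vpr and the record does not say whether a fall means rescue or toxicity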
#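 Fission yeast RE007 carrying one integrated HIV-1 vpr copy, seeded at OD 0.01 in PMG+AL medium with 23 nL pinned compound. Grown 24 h at 30 degrees; viability read by BacTiter-Glo luminescence after 5 min.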
# Cruzain inh noDet = inhibitors of Trypanosoma cruzi cruzain without detergent; P25779; 200,000 compounds, 2.3% hits; purified cruzain, Z-FR-AMC fluorescence, no detergent; Potency, µM, inactives show max response, negative = inhibition, hits mostly inhibitors;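 note: plate controls were enzyme without inhibitor for no effect and buffer without enzyme for full effect; nearly all actives have a fitted effect of over 40% in size; top concentration of the series not given in the record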
# Target sequence (P25779 123-467 limits assumed): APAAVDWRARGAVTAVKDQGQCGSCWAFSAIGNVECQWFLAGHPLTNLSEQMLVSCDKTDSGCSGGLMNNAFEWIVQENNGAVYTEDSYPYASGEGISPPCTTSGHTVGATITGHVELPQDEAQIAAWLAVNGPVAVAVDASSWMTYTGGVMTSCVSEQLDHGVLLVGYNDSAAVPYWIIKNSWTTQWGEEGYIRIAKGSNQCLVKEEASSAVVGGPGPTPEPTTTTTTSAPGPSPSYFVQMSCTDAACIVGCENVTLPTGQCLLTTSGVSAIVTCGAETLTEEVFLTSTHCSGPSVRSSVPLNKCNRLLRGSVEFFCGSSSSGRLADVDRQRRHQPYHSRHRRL
#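 Purified cruzain at 1.5 nM, pre-incubated 15 min with compound at room temperature in 100 mM sodium acetate pH 5.5, 5 mM DTT, 0.00005% Triton X-100. Reaction started with 2 uM Z-FR-AMC; AMC fluorescence increase over 60 s gives rate.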
# NS1 inh = blocks influenza NS1 protein function. S. cerevisiae slowed by influenza A NS1, growth recovery by OD600. Potency, µM (highest dose often 46.1 µM), inactives show at the top dose activity, positive = more growth. 270,000 compounds, 0.4% hits. AID 2326; active means well fitted rising curve with a large enough effect; inconclusive means small, poorly fitted or top-dose-only effect; inactive means no such curve, though single readings can be large or run the other way; note: nearly all actives have a fitted effect of over 50% in size
#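 Read-out: OD600 growth recovery of NS1-expressing budding yeast. Cells grown overnight at 30C in -URA glucose medium, washed, resuspended and diluted 1:100 in 2% galactose assay medium, pH 6.0. Same strain lacking NS1 served as positive control.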
# SARS PLpro yeast = SARS-CoV PLP inhibition in yeast; Potency, µM (series often up to 32.9 µM), for inactives: top-dose activity, positive = growth rescue; 330,000 compounds, 0.19% hits; AID 485353; S. cerevisiae expressing SARS-CoV PLpro, growth rescue; control for the full effect not named in the record; active means well fitted rising curve with a large enough effect; inconclusive means small, poorly fitted or top-dose-only effect; inactive means no such curve, though single readings can be large or run the other way; note: 0% is about no effect; nearly all actives have a fitted effect of over 55% in size; growth read by luminescence after 48 h
# Cruzain inh Det = cruzain (T. cruzi) inhibition with detergent. 200,000 compounds, 0.43% hits. purified cruzain, Z-FR-AMC fluorescence, 0.01% Triton. Potency, µM, for the others: max response, negative = inhibition, hits mostly inhibitors. P25779. AID 1478;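 note: plate controls were neutral wells for no effect and buffer without enzyme for full effect; nearly all actives have a fitted effect of over 40% in size; top concentration of the series not given in the record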
#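 Sodium acetate buffer (100 mM, pH 5.5) containing 5 mM DTT and 0.01% Triton X-100 hosted 1.5 nM cruzain and test compound for 15 min at room temperature. Cleavage of 2 uM Z-FR-AMC was then tracked by fluorescence.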
# Active calls of the source: *; ? = inconclusive; . = no result given; & = joins results of further samples; [ ] = another dose, or the depositor's remark. Unless noted, calls come from the whole dose curve; as a rule, active = well fitted curve in the direction sought with a large enough effect; inconclusive = small, poorly fitted or top-dose-only effect, or another doubt; inactive = no such curve, though single readings can be large; an effect the other way counts as inactive or inconclusive. Potency is the fitted concentration of half-maximal effect.
Compound | SARS PLpro yeast | 2A StopGo | Cruzain inh noDet | Lassa entry inh | Cruzain inh Det | RE007 growth inh | MARV entry inh | NS1 inh
CCOC(=O)c1ccc(CC2S/C(=C(\C#N)C(C)=O)NC2=O)cc1 (stereo not given) | 0.5% | 62.6%[activator] | -7.8% | ? | -8.4% | 0.7% | ? | 15.3%
CCOCCCn1c(=S)[nH]c2cc(C(=O)N3CCN(C4CCCCC4)CC3)ccc2c1=O | -3.2% | -15.2% | . | -10.0%[46.1 µM] | . | 14.6% | 4.9%[46.1 µM] | -0.2%
O=C(Nc1cccc(-c2nc3ccccc3[nH]2)c1)c1ccco1 | -4.7% | 3.8% | -10.5% | -20.6% | -6.6% | 4.7% | ? | -109.9%
COc1ccc(CNC(=O)C/C(C)=N/NC(=O)c2ccc(OC)cc2OC)cc1 | -0.5% | 10.9% | . | 0.2% | . | -6.2% | 11.2%[46.1 µM] | -1.8%
O=C(c1cccc(Br)c1)N1CCN(S(=O)(=O)N2CCOCC2)CC1 | -0.8% | -12.5% | . | -8.1%[46.1 µM] | . | 11.7% | 1.7%[46.1 µM] | 4.0%
COC(=O)c1cc(NC(=O)CN2C(=O)C(=O)N(C3CCCC3)C2=O)cc(C(=O)OC)c1 | 2.0% | -21.8% | . | -4.9% | . | 4.5% | ? | .
O=C(Nc1ccon1)Nc1ccc(F)cc1F | 4.8% | -11.6% | . | 0.6%[46.1 µM] | . | -14.2% | -0.6%[46.1 µM] | -3.3%
Cc1ccc(C)c(N2CCN(C(=O)C3CCN(c4nc(C)cc(C)n4)CC3)CC2)c1 | -14.5% | 17.8µM* | ? | -9.8% | -3.0% | 1.3% | ? | -81.6%
COc1cccc(-c2c(C#N)c(SC)nc3cc(C)nn23)c1 | 0.5% | -19.4% | . | -1.9% | . | -22.9% | -13.0% | 0.5%
Cc1cc(C)n(-c2cc(Oc3ccccc3)ncn2)n1 | -4.2% | 11.5% | -4.4% | 22.9% | 2.6% | -25.6% | 7.4% | -5.2%
COc1ccc(/C=C2\SC(=S)N(CCC(=O)Nc3ccccc3C(=O)O)C2=O)cc1 | -1.2% | -9.9% | . | -10.6%[46.1 µM] | . | -2.5% | 5.1%[46.1 µM] | 0.1%
CCN(CCNC(=O)CC1Oc2ccccc2NC1=O)c1ccccc1 (stereo not given) | 9.1% | -26.5% | -4.7% | . | 2.8% | 6.0% | . | -8.4%
NS(=O)(=O)c1ccc(CCNS(=O)(=O)c2ccc(Cl)cc2)cc1 | 4.6% | -3.8% | . | . | . | -3.2% | . | 0.2%
Cc1ccccc1C(=O)NC(Oc1ccccc1)C(Cl)(Cl)Cl (stereo not given) | 8.8% | -25.7% | -4.7% | -18.7% | -1.7% | -5.8% | ? | 4.9%
C=CCN1C(c2ccccc2)=CS/C1=C(/C#N)c1nnc(N2CCOCC2)n1-c1ccccc1 | -17.5% | 19.1% | 1.0% | -0.6% | ? | -0.3% | -4.3% | 9.2%
CC(=O)c1cccc(NC(=O)C2CC(=O)N(Cc3ccccc3)C2)c1 (stereo not given) | -15.4% | 15.8% | 6.1% | ? | 0.6% | 8.4% | 1.6%[46.1 µM] | 7.6%
NCCc1c[nH]c2ccccc12 | -8.0% | -11.3%&-2.4%&-16.5% | -1.6%&7.8%&-12.4% | ? | -11.1%&1.3%&-2.6% | 4.7% | ? | -9.4%&-6.3%
C=CCN(C#N)c1nc(OC)nc(N2CCCC2)n1 | -4.8% | -13.5% | -2.9% | ? | -3.5% | -2.8% | 8.2%[46.1 µM] | -14.2%
CCn1cc([N+](=O)[O-])c(C(=O)NCc2ccc(Cl)cc2)n1 | 0.0% | -13.2% | . | . | . | 3.0% | . | 4.0%
COc1ccc(NC(=O)c2c(NCc3sccc3C)sc3c2CCCC3)c(OC)c1 | . | 69.5%[activator] | -6.0% | ? | -4.7% | . | . | .
CCn1nnc2cc(C(=O)O)ccc21 | -0.2% | 15.5% | . | 24.7% | . | -7.6% | 6.7% | 0.4%
CCn1c(SCC(=O)N2CCCCC2)nc(O)cc1=O | 5.1% | -11.7% | 5.1% | 13.7% | -0.9% | 2.7% | 0.3% | 17.6%
Cc1occc1C(=O)NN=C1C2CC3CC(C2)CC1C3 | -3.2% | 17.7% | 0.9% | 4.4% | 2.8% | -7.2% | ? | 9.4%
CC(C)N(Cc1ccccc1)C(=O)COC(=O)c1ccccc1SCC(=O)N1CCCC1 | 1.6% | -27.6% | . | ? | . | 7.3% | ? | .
CC(C)OC(=O)c1c(NC(=O)c2cnn3c2NC(c2ccccc2)CC3C(F)(F)F)sc2c1CCCC2 (stereo not given) | 8.1% | -21.9% | ? | 20.3% | 3.4% | 10.1% | -16.2% | -4.8%
O=C(CC(=O)c1ccccc1)Nc1ccc2c(c1)OCCO2 | 1.6% | 5.5% | -0.8% | 8.91µM* | -2.7% | 3.7% | ? | -1.5%
O=C(Nc1ccc(F)cc1F)C1CCN(C(=O)c2cnn(-c3ccccc3)c2-n2cccc2)CC1 | . | -25.3% | ? | -7.3%[46.1 µM] | -6.2% | . | ? | .
COc1ccc(/C=C/C(=O)O/N=C(\N)c2ccccc2)cc1OC | 5.5% | 19.7% | -13.5% | -16.0% | -8.5% | -22.9% | ? | -13.0%
Cc1cc(C)n(-c2nc3c(c(=O)[nH]c(=O)n3C)n2Cc2ccccc2)n1 | 0.5% | -22.2% | -3.3% | -21.6% | 3.1% | -4.2% | -1.0% | -4.2%
Cc1cc(NCCN)nc2ccccc12 | -10.9% | -4.8% | -9.3% | -3.6% | -5.9% | -12.1% | ? | -3.4%
O=C(c1ccco1)N1CCN(C(=O)c2cc(-c3ccc(F)cc3)no2)CC1 | 17.8% | -13.7% | . | . | . | 0.5% | . | -10.2%
OCCN(CC#CCn1c2ccccc2c2ccccc21)CCO | -2.8% | -11.1% | . | . | . | 1.3% | . | -1.1%
O=C(CSc1nnc(-c2ccncc2)n1Cc1ccco1)N1c2ccccc2Sc2ccc(Cl)cc21 | 2.5% | -25.7% | ? | -25.8% | -13.5% | -16.9% | ? | 22.7%
COc1ccc2c(C)cc(SCC(=O)Nc3cccnc3Cl)nc2c1 | -0.2% | -23.3% | . | 4.1% | . | 7.9% | ? | -0.8%
COC(=O)CSc1nnc(-c2ccco2)n1Cc1ccco1 | 2.3% | 6.3% | -2.4% | 13.7% | 5.3% | -8.5% | -0.4% | -14.8%
Cn1c(=O)[nH]c(=O)c2c1nc(N1CCN(c3cccc(Cl)c3)CC1)n2CCCc1ccccc1 | 3.2% | . | 12.6µM* | . | -0.3% | . | 4.0% | -1.7%
COc1ccc(C2CCN(CC(=O)N(C)C)CC2O)cc1 (stereo not given) | 0.6% | 5.2% | . | 7.6% | . | 1.6% | 2.6% | 3.6%
Nc1c(C(=O)Nc2ccc(Cl)c(C(F)(F)F)c2)sc2nc(-c3ccncc3)ccc12 | . | ? | 1.0% | ? | -3.0% | . | -0.3%[46.1 µM] | .
Cc1ccc(NC(=O)/C=C\C(=O)O)c([N+](=O)[O-])c1 | 6.5% | -2.8% | 17.3% | 2.7% | 0.1% | -15.9% | -11.8% | 7.8%
COc1ccccc1N1CCN(C(=O)c2ccncc2)CC1 | -7.9% | -7.1% | -2.9% | 7.0% | 5.0% | -2.9% | -34.4% | -2.3%
Cc1c(Cl)cccc1NC(=S)N1CCOCC1 | -13.6% | -7.0% | -7.1% | 7.3% | -0.1% | 0.3% | -2.4% | 0.7%
O=C(c1cccn2c(=O)c3cc(Cl)ccc3nc12)N1CCN(c2ccccc2F)CC1 | . | 16.4% | -7.8% | -4.1%[46.1 µM] | 1.0% | . | . | .
Cc1cc(C)cc(C(=O)NCC(=O)OCC(=O)Nc2ccc(C)cc2Br)c1 | -5.4% | 17.2% | . | 1.0% | . | 22.5% | 1.2%[46.1 µM] | .
O=C(CSc1nccn1Cc1ccccc1)NC1CCCC1 | 12.6µM* | -9.0%&-5.2% | -2.8% | 7.1% | 3.6% | ? | 10.2%&10.2% | 5.2%
Cc1nn(C)c(C)c1S(=O)(=O)N(CC(=O)NCCc1ccc(Cl)cc1)c1ccc(C(C)C)cc1 | . | ? | ? | ? | -2.8% | . | 11.5%[46.1 µM] | .
O=[N+]([O-])c1ccccc1SN(Cc1ccccc1)c1ccccn1 | -36.4% | -5.1% | -2.5% | -0.3% | -3.0% | 12.0% | 2.4% | -12.8%
CC1Cc2ccccc2N1C(=O)CSc1nnc(-c2ccc(S(=O)(=O)N3CCCCC3)cc2)o1 (stereo not given) | 6.7% | . | 9.3% | . | 0.8% | . | 3.9% | 2.1%
Cc1ccccc1CC(=O)N1CC(C)OC(C)C1 (stereo not given) | -1.7% | -0.7% | . | . | . | 6.4% | . | 9.9%
O=C1C(Cl)=C(NCCc2ccccc2)C(=O)N1CCc1ccccc1 | 0.6% | 29.6% | -15.6% | ? | -3.0% | -15.0% | 22.4% | 10.1%
CCN1C(=O)/C(=C/c2ccc(C)s2)NC1=S | ? | 7.0% | -1.0% | 5.5% | -8.4% | ? | 18.8%[46.1 µM] | -8.2%
CCC1CCCCN1CCCNC(=O)c1cn(CC(C)C)c(=O)c2cc(OC)c(OC)cc12 (stereo not given) | -0.9% | 40.5%[activator] | ? | 5.2% | 0.4% | 11.3% | 27.4%&27.4% | 13.5%
O=C(Nc1nc(-c2cccs2)c(-c2cccs2)s1)C1(c2ccccc2)CC1 | -3.8% | ? | 10µM* | ? | -1.3% | -13.2% | ? | 16.5%
CCn1c(=O)c2cc(C(=O)N(CCN(C)C)Cc3ccccc3)sc2c2ccccc21 | . | -8.9% | -16.3% | 22.9%[46.1 µM] | 2.4% | . | 4.1%[46.1 µM] | .
CCC1(c2ccc(Cl)cc2)NC(=S)N(c2ccccc2)N1 (stereo not given) | -8.2% | 22.8% | -11.4% | 1.5% | -9.4% | 23.2% | ? | 8.8%
COc1ccc(C2c3c(oc4ccccc4c3=O)C(=O)N2c2ccc(C)cn2)cc1OC (stereo not given) | 12.4% | -11.1% | ? | 3.1% | -7.2% | -2.9% | -4.4%&-4.4% | -55.8%
